Vaccinia inh: Vaccinia orthopox stage-specific inhibition | Vaccinia-infected cells, mCherry/Venus stage reporter fluorescence; active compounds read low; some inactives read as strong as hits | activity change (mCherry), % (test concentration not listed) | actives 0.01% (n = 89,000);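 active = mCherry past -33% and 40 or more points under the early reporter, replicates agreeing; inconclusive = past -33% without that gap or agreement; tested in A549 cells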;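 also: scaled between vehicle wells and reference inhibitor wells; 23 nL library stock went into each well; one replicate is shown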
Vaccinia inh Venus: also measured in Vaccinia inh; calls as there; activity change (Venus), %; measured here: Venus reporter, other viral stage;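 negative = less Venus signal; first of two replicates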
* = called active by the depositor; u = inconclusive; x = no result given; & = joins results of further samples.

SMILES	Vaccinia inh	Vaccinia inh Venus
Cc1ccccc1-c1ccc2c(c1)O[C@H](CN(C)C(=O)C1CC1)[C@@H](C)CN([C@@H](C)CO)S2(=O)=O	-16&-22	-14&-23
C[C@@H]1CN([C@@H](C)CO)C(=O)Cc2cc(NS(C)(=O)=O)ccc2O[C@@H]1CN(C)S(C)(=O)=O	-3	8
CC(C)NC(=O)N(C)C[C@@H]1Oc2ccc(NC(=O)CCCCCC(=O)Nc3ccccc3N)cc2C(=O)N([C@H](C)CO)C[C@@H]1C	4	6
Cc1noc(C)c1NC(=O)N(C)C[C@H]1Oc2ccc(NC(=O)Nc3ccccc3)cc2CC(=O)N([C@@H](C)CO)C[C@@H]1C	1	7
O=C(C[C@H]1C=C[C@@H](NC(=O)Nc2ccccc2)[C@H](CO)O1)NCc1ccccn1	0	0
C[C@H]1CN([C@@H](C)CO)C(=O)c2cc(C#Cc3ccccc3F)cnc2O[C@H]1CN(C)C	-24	-11
Cc1cc(C(=O)Nc2cccc3c2O[C@@H](CN(C)S(=O)(=O)c2ccc(F)cc2)[C@H](C)CN([C@H](C)CO)C3=O)n(C)n1	8	2
CC(C)NC(=O)Nc1ccc2c(c1)C(=O)N(C)[C@H]1CC[C@H](CC(=O)NCC3CCCCC3)O[C@@H]1CO2	19	16
COCCNC(=O)C[C@@H]1CC[C@H]2[C@H](COc3ccc(NC(=O)C4CCCC4)cc3C(=O)N2C)O1	13	20
C[C@@H]1CN([C@@H](C)CO)C(=O)Cc2cc(NC(=O)C3CC3)ccc2O[C@H]1CN(C)Cc1ccc(Cl)c(Cl)c1	u	x
COc1cccc(NC(=O)N[C@H]2CC[C@H](CC(=O)NCc3ccccn3)O[C@H]2CO)c1	5	3
O=C(C[C@H]1CC[C@@H](NC(=O)C2CCOCC2)[C@@H](CO)O1)NCC1CC1	14	9
C[C@@H]1CN([C@H](C)CO)C(=O)c2cccc(NS(=O)(=O)c3ccc(F)cc3)c2O[C@H]1CN(C)S(=O)(=O)c1ccccc1	13	10
O=C(C[C@H]1C[C@@H]2c3cc(NC(=O)NC4CCCCC4)ccc3O[C@@H]2[C@@H](CO)O1)NCCc1ccccc1	-3	-4
C[C@H]1CCCCO[C@H](CN(C)Cc2ccccc2)[C@@H](C)CN([C@@H](C)CO)C(=O)c2cc(NC(=O)Nc3ccc4c(c3)OCO4)ccc2O1	u	x
C[C@H]1CCCCO[C@@H](CN(C)C)[C@@H](C)CN([C@@H](C)CO)C(=O)c2cc(NS(=O)(=O)c3cn(C)cn3)ccc2O1	15	-3
C[C@@H]1CCCCO[C@H](CN(C)Cc2ccc(C(F)(F)F)cc2)[C@H](C)CN([C@@H](C)CO)C(=O)c2cc(NS(=O)(=O)c3ccc(F)cc3)ccc2O1	u	x
CN(C)C(=O)c1cccc(-c2ccc([C@H]3[C@@H](C#N)N(C(=O)C4CCC4)[C@@H]3CO)cc2)c1	-17	-9
Cc1ccc(OC(=O)N(C)C[C@@H]2OCc3ccccc3-c3ccccc3C(=O)N([C@@H](C)CO)C[C@@H]2C)cc1	-5	3
CC(C)CC#Cc1cnc2c(c1)C(=O)N([C@@H](C)CO)C[C@@H](C)[C@@H](CN(C)C(=O)Nc1cc(F)ccc1F)O2	u	x
O=C(N[C@@H]1CC[C@H](CC(=O)N2CCOCC2)O[C@H]1CO)c1cccc(F)c1	0	-1
O=C(C[C@H]1C[C@H]2c3cc(NC(=O)CC4CC4)ccc3O[C@H]2[C@H](CO)O1)NCc1cc(F)ccc1F	10	10
CN(C)Cc1cn(CC[C@H]2CC[C@H](N)[C@@H](CO)O2)nn1	5	6
COc1ccc(C#Cc2ccc3c(c2)O[C@@H](CN(C)S(=O)(=O)c2ccccc2F)[C@@H](C)CN([C@@H](C)CO)S3(=O)=O)cc1	10	8
CCC(=O)N1CC2(C1)CN(C(C)=O)[C@@H](CO)c1[nH]c3cc(OC)ccc3c12	24	13
C[C@@H]1CN([C@H](C)CO)C(=O)Cc2cc(NC(=O)C3CC3)ccc2O[C@@H]1CN(C)Cc1ccc(C(=O)O)cc1	2	3
COc1ccc(-c2cnc3c(c2)C(=O)N([C@H](C)CO)C[C@H](C)[C@@H](CN(C)Cc2ccc(C(=O)O)cc2)O3)cc1	-8	1
C[C@@H]1CN([C@H](C)CO)S(=O)(=O)c2ccc(-c3cccnc3)cc2O[C@@H]1CN(C)C(=O)c1cccc(F)c1	19	12
NCCCCCCNC(=O)[C@@H]1C[C@@H]2C(=O)N[C@@H](Cc3ccccc3)C(=O)N2[C@@H]1c1ccc(O)cc1	30	23
CC(=O)N1[C@@H]2c3cccc(=O)n3C[C@@H]2[C@@H](CO)[C@@H]1C(=O)NCc1ccccc1	12	6
Cc1ccc(S(=O)(=O)NCC[C@@H]2CC[C@H](NC(=O)NC(C)C)[C@H](CO)O2)cc1	11	16
COCC(=O)Nc1ccc2c(c1)[C@H]1C[C@H](CC(=O)N(C)C)O[C@H](CO)[C@H]1O2	6	13
C[C@H](CO)N1C[C@H](C)[C@@H](CN(C)CC2CCCCC2)Oc2ccc(NC(=O)Nc3cccc4ccccc34)cc2C1=O	-14	-12
CN(C)C(=O)C[C@H]1CC[C@@H]2[C@H](COC[C@@H](O)CN2CC2CC2)O1	6	5
COC(=O)C[C@@H]1CC[C@@H]2[C@@H](COc3ccc(NC(=O)c4cnccn4)cc3C(=O)N2C)O1	20	20
O=C1[C@@H](Cc2ccccc2)CCn2cc(nn2)COCC2CCCN12 (stereo partly drawn)	4	4

Arranged by number of heavy atoms (rising): part of the list above
SMILES	Vaccinia inh	Vaccinia inh Venus
CN(C)Cc1cn(CC[C@H]2CC[C@H](N)[C@@H](CO)O2)nn1	5	6
CN(C)C(=O)C[C@H]1CC[C@@H]2[C@H](COC[C@@H](O)CN2CC2CC2)O1	6	5
O=C1[C@@H](Cc2ccccc2)CCn2cc(nn2)COCC2CCCN12 (stereo partly drawn)	4	4
CCC(=O)N1CC2(C1)CN(C(C)=O)[C@@H](CO)c1[nH]c3cc(OC)ccc3c12	24	13
CC(=O)N1[C@@H]2c3cccc(=O)n3C[C@@H]2[C@@H](CO)[C@@H]1C(=O)NCc1ccccc1	12	6
COC(=O)C[C@@H]1CC[C@@H]2[C@@H](COc3ccc(NC(=O)c4cnccn4)cc3C(=O)N2C)O1	20	20
NCCCCCCNC(=O)[C@@H]1C[C@@H]2C(=O)N[C@@H](Cc3ccccc3)C(=O)N2[C@@H]1c1ccc(O)cc1	30	23
C[C@@H]1CN([C@H](C)CO)S(=O)(=O)c2ccc(-c3cccnc3)cc2O[C@@H]1CN(C)C(=O)c1cccc(F)c1	19	12
C[C@@H]1CN([C@H](C)CO)C(=O)Cc2cc(NC(=O)C3CC3)ccc2O[C@@H]1CN(C)Cc1ccc(C(=O)O)cc1	2	3
COc1ccc(-c2cnc3c(c2)C(=O)N([C@H](C)CO)C[C@H](C)[C@@H](CN(C)Cc2ccc(C(=O)O)cc2)O3)cc1	-8	1
C[C@H](CO)N1C[C@H](C)[C@@H](CN(C)CC2CCCCC2)Oc2ccc(NC(=O)Nc3cccc4ccccc34)cc2C1=O	-14	-12

Remaining list, next part
SMILES	Vaccinia inh	Vaccinia inh Venus
CC(C)NC(=O)N(C)C[C@H]1Oc2ncc(-c3cncnc3)cc2C(=O)N([C@@H](C)CO)C[C@H]1C	24	15
C[C@H]1CCCCO[C@H](CN(C)C(=O)Nc2ccc(F)cc2)[C@@H](C)CN([C@@H](C)CO)C(=O)c2cc(NS(C)(=O)=O)ccc2O1	-11	-16
O=C(N[C@H]1CC[C@@H](CCn2cc(-c3ccccn3)nn2)O[C@H]1CO)c1cccnc1	-16	-17
C[C@@H]1CCCCO[C@@H](CN(C)C(=O)NC2CCCCC2)[C@H](C)CN([C@H](C)CO)C(=O)c2cc(NS(=O)(=O)c3ccc(F)cc3)ccc2O1	u	x
C[C@@H]1CN([C@@H](C)CO)S(=O)(=O)c2ccc(C#CCC3CCCC3)cc2O[C@@H]1CN(C)C(=O)CC1CC1	u	x
COCc1cn(CC[C@H]2CC[C@H](NC(=O)Cc3cccnc3)[C@@H](CO)O2)nn1	16	17
COc1cccc(NC(=O)N(C)C[C@@H]2OCc3cn(nn3)CCCC(=O)N([C@H](C)CO)C[C@H]2C)c1	12&6	8&2
CC(=O)N(C)C[C@@H]1Oc2ncc(-c3ccccc3C)cc2C(=O)N([C@H](C)CO)C[C@H]1C	2	6
C[C@H](CO)N1C[C@H](C)[C@H](CN(C)C(=O)CCCN(C)C)OCCCC[C@H](C)Oc2ccc(NS(=O)(=O)c3ccccc3)cc2C1=O	35	9
CC(=O)NC[C@@H]1[C@H](c2ccc(-c3ccccc3)cc2)[C@H](CO)N1C(=O)C1CC1	-5	-2
CC(C)NC(=O)N(C)C[C@@H]1Oc2ccc(NC(=O)Nc3ccc4c(c3)OCO4)cc2C(=O)N([C@@H](C)CO)C[C@H]1C	19	15
Cc1noc(C)c1NC(=O)Nc1ccc2c(c1)C(=O)N([C@@H](C)CO)C[C@H](C)[C@H](CN(C)S(=O)(=O)c1cccs1)O2	24	7
C[C@H](CO)N1C[C@H](C)[C@H](CN(C)C(=O)C2CCOCC2)Oc2cc(C3=CCCCC3)ccc2S1(=O)=O	-11	0
C[C@H]1CN([C@@H](C)CO)C(=O)c2cc(N(C)C)ccc2O[C@H]1CN(C)S(=O)(=O)c1ccc(Cl)cc1	-4	-7
O=C(C[C@H]1C[C@H]2c3cc(NC(=O)CC4CC4)ccc3O[C@H]2[C@H](CO)O1)NCc1ccncc1	13	12
CCC(=O)Nc1ccc2c(c1)C(=O)N(C)C[C@@H](OC)[C@@H](C)CN(C(=O)CC)[C@@H](C)CO2	9	5
COc1ccccc1-c1cn(CC[C@H]2CC[C@@H](NC(=O)Cc3ccccn3)[C@H](CO)O2)nn1	-1	6
C[C@@H]1CN([C@@H](C)CO)C(=O)c2cc(C#Cc3cccc(F)c3)cnc2O[C@@H]1CN(C)C(=O)c1ccccc1F	-33	-29
COc1ccc(S(=O)(=O)N(C)C[C@@H]2Oc3ccc(NS(=O)(=O)c4c(C)noc4C)cc3C(=O)N([C@@H](C)CO)C[C@H]2C)cc1	-5	3
CN(C)CC(=O)N1[C@H](CO)[C@H](c2ccc(-c3ccccc3F)cc2)[C@@H]1C#N	5	1
C[C@H]1CN([C@@H](C)CO)C(=O)c2cc(NC(=O)Nc3ccc(F)cc3)ccc2O[C@@H]1CN(C)Cc1ccc(Cl)c(Cl)c1	10	11
C[C@H](NC(=O)C[C@H]1CC[C@@H]2[C@H](COC[C@@H](O)CN2C(=O)Nc2ccccc2)O1)c1ccccc1	5	-1
CCCc1cn(CC[C@H]2CC[C@H](NC(=O)C3CC3)[C@@H](CO)O2)nn1	2	3
CCNC(=O)C[C@H]1CC[C@@H](NS(=O)(=O)c2ccc(F)cc2)[C@@H](CO)O1	10	13
Cc1ccc(S(=O)(=O)N(C)C[C@H]2Oc3ccc(NS(=O)(=O)c4ccccc4)cc3CC(=O)N([C@H](C)CO)C[C@@H]2C)cc1	-25	-20
Cc1ccc(S(=O)(=O)Nc2ccc3c(c2)C(=O)N([C@H](C)CO)C[C@@H](C)[C@@H](CN(C)Cc2ccncc2)OCCCC[C@H](C)O3)cc1	-24	-23
O=C(C[C@H]1C[C@@H]2c3cc(NC(=O)C4CCC4)ccc3O[C@@H]2[C@H](CO)O1)NC1CCCC1	2	17
C/C=C/c1ccc([C@H]2[C@@H](C#N)N(c3ncc(CC)s3)[C@H]2CO)cc1	-16	-16
COc1ccccc1CN1C(=O)c2ccccc2[C@@]2(Cc3ccccc3N(CCN3CCOCC3)C2=O)[C@@H]1c1ccc(CO)cc1	0	-6
O=C([C@H]1[C@H](CO)[C@H]2Cn3c(ccc(-c4ccc(F)cc4)c3=O)[C@H]2N1Cc1cocn1)N1CCCCC1	11	15
Cc1noc(C)c1NC(=O)N(C)C[C@@H]1Oc2ccc(NC(=O)Nc3ccc(F)cc3)cc2CC(=O)N([C@@H](C)CO)C[C@@H]1C	28	33
C[C@H]1CN([C@@H](C)CO)S(=O)(=O)c2ccc(Br)cc2O[C@@H]1CN(C)S(=O)(=O)c1ccccc1F	u	x
C[C@H](CO)N1C[C@H](C)[C@@H](CN(C)S(=O)(=O)c2ccc(Oc3ccccc3)nc2)OCc2cnnn2CCCC1=O	-6	-3
C[C@@H]1CN([C@H](C)CO)S(=O)(=O)c2ccc(-c3cccnc3)cc2O[C@@H]1CN(C)C(=O)NC1CCCC1	18	12
CN1C(=O)c2cc(NC(=O)c3ccc(F)cc3)ccc2OC[C@@H]2O[C@H](CC(=O)N3CCOCC3)CC[C@H]21	4	2
CC(C)CC#Cc1ccc([C@H]2[C@@H](CO)N3C(=O)CN(C(=O)NC4CCCC4)C[C@@H]23)cc1	-12	-5
Cc1noc(C)c1NC(=O)N(C)C[C@H]1OCCCC[C@H](C)Oc2ccc(NS(=O)(=O)c3cccs3)cc2C(=O)N([C@H](C)CO)C[C@@H]1C	38	22
C[C@@H]1CCCCO[C@@H](CN(C)S(=O)(=O)c2ccc(Cl)cc2)[C@@H](C)CN([C@@H](C)CO)C(=O)c2cc(NC(=O)CCC(F)(F)F)ccc2O1	15	4
C[C@H](CO)N1C[C@H](C)[C@H](CN(C)CC2CC2)Oc2cc(-c3cccc(C#N)c3)ccc2S1(=O)=O	2	-2
CC(C)CC#Cc1cnc2c(c1)C(=O)N([C@H](C)CO)C[C@H](C)[C@@H](CN(C)C(=O)C1CCOCC1)O2	-10	0
C[C@@H]1CCCCO[C@H](CN(C)C)[C@@H](C)CN([C@H](C)CO)C(=O)c2cc(NS(=O)(=O)c3ccccc3)ccc2O1	12	3
C[C@@H]1CCCCO[C@@H](CN(C)S(=O)(=O)c2ccc(Cl)cc2)[C@@H](C)CN([C@H](C)CO)C(=O)c2cc(NC(=O)C3CCCCC3)ccc2O1	-7	-9
CCCNC(=O)N[C@H]1CC[C@@H](CC(=O)NC2CCC2)O[C@H]1CO	1	1
C[C@H]1CN([C@@H](C)CO)C(=O)CCCn2cc(nn2)CO[C@@H]1CN(C)C(=O)Nc1ccc(C(C)(C)C)cc1	5	1

Screening data (PubChem)

These rows are one share of the data; count on the stated rates, not on these rows.
